Screening data deposited in PubChem by National Center for Advancing Translational Sciences (NCATS).
TRPML1 inh = human mucolipin-1 channel inhibition. TRPML1-inducible cells, Ca2+ dye fluorescence, FDSS; active compounds read low; inhibition of EC80 agonist-evoked calcium signal. activity change, negative = inhibition, % (no concentration beside the values). hit rate 0.02% among 390,000. AID 624415; in the data active means activity change below about -50%; inconclusive means about -30% to -50%; inactive means above about -30%;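 note: stimulus is agonist 54-4 at its EC80 concentration; % is set by controls: 0 for no effect and ±100 for the full control effect; compound concentration not given in the record; the text of the record puts the active cut at -80%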
Target sequence (Q9GZU1 whole entry, looked up): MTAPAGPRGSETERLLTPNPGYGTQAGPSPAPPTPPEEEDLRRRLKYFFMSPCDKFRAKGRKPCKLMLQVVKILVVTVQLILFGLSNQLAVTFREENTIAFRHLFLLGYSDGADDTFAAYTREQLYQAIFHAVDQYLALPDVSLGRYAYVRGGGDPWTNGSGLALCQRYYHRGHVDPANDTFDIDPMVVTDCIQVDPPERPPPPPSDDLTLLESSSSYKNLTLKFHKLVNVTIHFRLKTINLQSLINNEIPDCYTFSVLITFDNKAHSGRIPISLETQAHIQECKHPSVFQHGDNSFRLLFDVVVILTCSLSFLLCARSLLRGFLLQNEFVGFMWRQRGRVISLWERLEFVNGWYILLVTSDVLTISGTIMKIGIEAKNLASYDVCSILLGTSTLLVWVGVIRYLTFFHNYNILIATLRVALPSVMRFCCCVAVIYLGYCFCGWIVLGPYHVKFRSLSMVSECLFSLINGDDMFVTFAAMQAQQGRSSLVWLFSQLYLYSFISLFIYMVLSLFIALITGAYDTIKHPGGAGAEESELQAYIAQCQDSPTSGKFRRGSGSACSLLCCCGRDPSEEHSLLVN
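TRPML1-DL cells, Tet-induced overnight (~16 h, 37 °C) at 1,500 cells/well, were loaded with Ca8 no-wash dye plus quencher for 45-90 min at room temperature. Compounds were pinned during FDSS kinetic reading; agonist 54-4 at EC80 (4 uM final) then added.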
CtBP-E1A blk = blocks the CtBP interaction with E1A; AlphaScreen GST-E1A/His-CtBP binding, 1536-well; active compounds read low; control for the full effect not named in the record; activity change, % (concentration not given with the values); AID 651724; hit rate 0.49% among 340,000; in the data active means activity change below about -65%; inconclusive means about -30% to -65%; inactive means above about -30%; note: % is set by controls: 0 for no effect and ±100 for the full control effect
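Steps: dispense buffer (Tris pH 8.0, NaCl 300 mM, TCEP 1 mM, BSA, Tween 20); add 5X protein mix (GST-E1A, His-CtBP, 125 nM each); pin 23 nL compound; 2 h at 37 °C, dark; add 5X beads (50 ug/mL); 1 h; read.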
PINK1 expr mod = PINK1 expression modulation; PINK1 immunofluorescence, high-content cytometry, 24 h; Potency, µM (doses to about 76.6 µM), for inactives: top-dose activation (PINK1 increase), hits mostly activators; hit rate 0.2% among 410,000; AID 624263; active = well fitted activation curve with a large enough effect; inconclusive = small, poorly fitted or top-dose-only effect; inactive = flat fitted curve, though single readings scatter; cell line not stated here;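 note: potency is the fitted concentration of half-maximal effect; % of control where 0% means no effect; nearly all actives have a fitted effect of over 65% in size; a mitochondrial uncoupler was the plate control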
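Decision-based qHTS: stable cells, 24 h exposure to five compound concentrations, CCCP as control. Fixed cells stained for PINK1 plus nuclear, mitochondrial and cell markers, cytometer read.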
TRPML1 agonist = activates the human TRPML1 channel; AID 624414; activation, % (no concentration beside the values); Q9GZU1; TRPML1-expressing cells, Ca2+ dye fluorescence, FDSS; host cell line not named in the record; reference of the full effect not given here; hit rate 0.12% among 410,000; in the data active = activation above about 50%; inconclusive = about 30% to 50%; inactive = below about 30%; note: 0% is about no effect; the text of the record puts the active cut at 80%
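Cells: TRPML1-DL, 1X Tet inducer, ~16 h at 37 degrees C/5% CO2. Dye: ABD Ca8 no-wash + quencher, 45-90 min RT. Read: 10 s baseline, compound add, 110 s agonist phase; 54-4 EC80 (4uM final), 110 s antagonist phase.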
D2 agonist = human D2 receptor agonism in beta-arrestin assay | DiscoveRx PathHunter D2 beta-arrestin, luminescence, 90 min; 100% = 57 uM dopamine signal | hit rate 0.084% among 360,000 | activation, % (no concentration beside the values) | P14416; in the data active = activation above about 40%; inconclusive = about 15% to 40%; inactive = below about 15%; note: compound concentration not given in the record; the text of the record calls up to 30% inactive
Target sequence (P14416 whole entry, looked up): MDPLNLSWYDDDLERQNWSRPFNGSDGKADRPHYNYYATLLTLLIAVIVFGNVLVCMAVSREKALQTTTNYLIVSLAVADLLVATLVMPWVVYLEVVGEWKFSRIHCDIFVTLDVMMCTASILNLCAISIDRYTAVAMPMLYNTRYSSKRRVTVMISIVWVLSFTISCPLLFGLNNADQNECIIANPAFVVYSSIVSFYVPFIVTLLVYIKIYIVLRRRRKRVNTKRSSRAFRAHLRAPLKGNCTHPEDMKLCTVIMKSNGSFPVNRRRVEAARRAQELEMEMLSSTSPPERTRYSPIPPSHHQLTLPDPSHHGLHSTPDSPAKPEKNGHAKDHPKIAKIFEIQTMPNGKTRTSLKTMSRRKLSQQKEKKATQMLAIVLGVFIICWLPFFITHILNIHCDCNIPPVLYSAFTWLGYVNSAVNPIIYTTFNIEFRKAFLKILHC
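DiscoveRx PathHunter D2 beta-arrestin cells (2,100/well) attached overnight, then compound-stimulated 90 min at 37 C in HBSS/10 mM HEPES/0.1% Tween-20 buffer; beta-galactosidase complementation read by luminescence after 1 h at ambient temperature. Dopamine 57 uM final (EC100) as control.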
Six1-Eya2 inh = blocks human Six1 binding to Eya2. Q15475+O00167. activity change, % (test concentration not listed). AID 651725. hit rate 0.56% among 360,000. AlphaScreen GST-Six1/His-Eya2 binding, biochemical; active compounds read low; control for the full effect not named in the record; in the data active = activity change below about -65%; inconclusive = about -30% to -65%; inactive = above about -30%; note: % is set by controls: 0 for no effect and ±100 for the full control effect
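Compounds are tested against tagged Six1 and Eya2 proteins bridged by glutathione donor and nickel acceptor beads; after a one-hour incubation at 37 °C without light, AlphaScreen emission is recorded.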
An asterisk follows results filed as active; ? = inconclusive; nt = not tested or not shown; [ ] = dose if it differs, or a comment.

SMILES	TRPML1 inh	CtBP-E1A blk	PINK1 expr mod	TRPML1 agonist	D2 agonist	Six1-Eya2 inh
COc1cc(/C=N/NC(=O)c2ccc(CN3C(=O)c4cccc5cccc3c45)cc2)cc(OC)c1O	-6.2	0.1	2.0%	3.0	1.2	8.6
c1ccc(COc2ccc(OCCCCN3CCCCC3)cc2)cc1	10.4	-0.7	0.4%	0.0	4.0	-11.0
Cc1noc(C)c1CSCC(=O)N(C)CC(=O)Nc1ccc(Cl)cc1	13.2	3.0	2.4%	0.0	2.9	8.0
COc1ccc(NC(=O)CSc2nnc(CNC(=O)COc3ccc(Cl)cc3)o2)cc1	-1.6	nt	1.9%	1.4	-1.6	-4.4
COc1cccc(OCc2cc(/C=N/n3cncn3)ccc2OC)c1	14.5	-2.6	3.9%	1.8	4.6	24.5
COc1ccc(-c2cn3c(n2)sc2cc(C(=O)NC4CCCCC4)ccc23)cc1	5.8	nt	1.0%	-0.3	nt	nt
CC(=O)c1ccc(NC(=O)C2CCC(CNS(=O)(=O)c3ccc(Br)s3)CC2)cc1 (stereo not given)	17.4	nt	2.9%	1.1	nt	nt
CN[C@@H](C)C(=O)NC[C@H]1O[C@@H](n2cnc3c(N)ncnc32)[C@H](O)[C@@H]1O	2.7	3.4	0.3%	-0.4	-2.5	3.0
CCOC(=O)c1cc(-c2ccc(C)o2)n[nH]1	-3.2	0.5	1.7%[38.3 µM]	0.3	-0.5	-4.9
CC(C)(C)S(=O)(=O)c1cnc(N2CCCC2)nc1N	-5.3	1.7	0.2%	0.1	-6.2	-7.4
CC(=O)N1CCN(S(=O)(=O)c2cccc(C(=O)NC3CC3)c2)CC1	-2.5	nt	3.8%	-0.1	-0.7	13.3
N#C/C(=N\Nc1ccc(S(=O)(=O)N2CCCCCC2)cc1)C(N)=S	40.7	12.5	7.6%	0.2	-21.6	-5.9
CCCCN(CCCC)CCCNC(=O)c1cc(-c2ccc(Cl)s2)nc2ccccc12	-11.5	nt	0.9%	1.0	nt	nt
Cc1ccc(S(=O)(=O)NCC(NCc2ccc(F)cc2)c2ccccc2)cc1 (stereo not given)	32.2	9.6	2.0%	3.3	0.1	9.1
O=c1c2ccccc2c(C=NC2CCS(=O)(=O)C2)c(O)n1-c1ccccc1 (stereo not given)	-11.9	3.1	-1.5%	0.0	-2.5	1.6
Cc1cc(C)n(-c2nc3ccccc3nc2N2CCN(C(=O)c3ccc(F)cc3)CC2)n1	-20.0	0.0	2.1%[38.3 µM]	0.3	-3.8	2.0
CCCCCC(=O)N1C[C@H](O)[C@@H](n2cc(-c3ccc(F)cc3)nn2)C[C@@H]1c1ccccc1	3.9	1.3	-0.2%	-0.6	-0.6	-5.0
CCOC(=O)c1cc(S(=O)(=O)NCC2CCN(Cc3cccc(C)c3)CC2)cn1C	-13.1	-17.0	-0.6%	0.3	-3.4	-0.4
Cc1cc2occ(CC(=O)N(C)CC(=O)Nc3ccccc3C(F)(F)F)c2cc1C	11.2	-7.7	1.3%	2.5	-2.6	-0.2
OCCCc1nc2ccccc2n1CCOc1ccccc1	-11.6	0.0	-0.5%[38.3 µM]	1.6	0.4	-1.5
CCc1cc2c(=O)c(-c3nc(C)cs3)c(CCCC(=O)O)oc2cc1O	3.1	1.0	-1.6%	0.8	-1.6	0.0
O=C(CC1C(=O)NCCN1Cc1ccc(F)cc1)NCCCn1cccn1 (stereo not given)	-9.4	nt	1.0%	0.2	-0.5	0.5
CCc1ccc(-n2c(=O)c3c4c(sc3n(Cc3cc(=O)n5c(C)cccc5n3)c2=O)CCC4)cc1	-14.4	nt	2.1%	-0.8	nt	nt
CCOc1ccc(-n2c(SCC(=O)N3CCOCC3)nc3c([nH]c4ccccc43)c2=O)cc1	46.5	nt	-4.1%	0.6	nt	nt
O=C(/C=C/c1cccc(Br)c1)OCC(=O)N1CCN(c2ccccc2)CC1	26.9	nt	0.0%	0.9	-3.8	0.9
O=C(CSc1cnc2ccccc2n1)c1ccc(F)cc1	0.6	1.3	-2.4%	6.4	-8.9	-2.1
CC(=NNC(=O)c1ccncc1)c1ccc(Cl)c(Cl)c1	-8.3	-5.1	2.4%	-0.5	-1.9	-3.8
CC(Oc1cccc(Br)c1)C(=O)N1CCCN(C)CC1 (stereo not given)	48.8	3.6	3.9%	0.2	-4.9	-2.0
O=[N+]([O-])/C=C/c1cn(Cc2ccc(Cl)cc2)c2ccccc12	17.5	-3.6	0.5%	1.6	-1.4	1.5
Cc1ccc2cc(CN(CC(C)C)S(=O)(=O)c3ccccc3)c(=O)[nH]c2c1	12.5	nt	3.2%	-0.3	-2.6	-6.1
CCCCn1c(N)c(S(=O)(=O)c2ccc(C)cc2)c2nc3ccccc3nc21	4.6	0.3	16.0%	-0.5	-1.8	7.1
CCOC(=O)c1c[nH]c2ccc([N+](=O)[O-])cc12	-29.5	-24.3	6.7%	1.3	-0.2	?
CC(=O)C(Sc1ccc2nnc(-c3cccnc3)n2n1)C(C)=O	24.2	nt	1.5%	-0.3	-1.4	-2.9
CCCc1cc(SCC(=O)Nc2c(C)n(C)n(-c3ccccc3)c2=O)n2c(nc3ccccc32)c1C#N	-24.3	4.0	-0.4%	0.0	0.0	3.2
Cc1c(C(=O)Nc2cccc(Cl)c2)cn2c(nc3ccccc32)c1C#N	-7.5	-0.8	0.2%	-0.2	-2.5	9.4
CC(OC(=O)Cc1cccc(C(F)(F)F)c1)C(=O)Nc1ccc(Cl)cn1 (stereo not given)	5.5	11.2	0.8%	1.6	-2.5	14.5
Cc1ccc(C(=O)N2CCCCC2)cc1S(=O)(=O)N1CCCCCC1	6.3	-2.3	-1.1%	0.7	-0.9	9.6
CCN(CC)c1ccc(/C=N/NC(=O)c2cnccn2)c(O)c1	-4.1	nt	1.1%	-0.6	-2.7	-91.7*
CCc1n[nH]c(=S)n1/N=C/c1cc(Br)c(OC)cc1OC	3.0	2.6	5.5%	-0.4	-1.6	7.4
CCn1ncc(Cl)c1C(=O)NC(=S)Nc1c(C)cc(C)cc1[N+](=O)[O-]	20.8	-1.2	2.8%	4.2	-3.3	-20.8

Marked active in Six1-Eya2 inh, among the entries above:
Compound,TRPML1 inh,CtBP-E1A blk,PINK1 expr mod,D2 agonist,Six1-Eya2 inh
CCN(CC)c1ccc(/C=N/NC(=O)c2cnccn2)c(O)c1,-4.1,nt,1.1%,-2.7,-91.7*

The list continues:
SMILES	TRPML1 inh	CtBP-E1A blk	PINK1 expr mod	TRPML1 agonist	D2 agonist	Six1-Eya2 inh
CCN(CC)CCOC(=O)C1(C2CCCCC2)CCCCC1	-2.7	-23.8	5.8%	-0.8	nt	-4.7
COc1ccc2c(c1)[nH]c1c(=O)n(CCC3=CCCCC3)cnc12	-2.6	-1.7	4.0%	0.3	-2.6	12.2
Cc1cccc(NC(=O)COC(=O)CC2CCCC2)c1C	13.8	-3.4	1.2%	1.4	0.7	7.3
CCn1c(SCc2nc3ccccc3[nH]2)nnc1-c1ccccc1OC	9.0	-0.6	0.2%	-0.3	-0.4	5.8
Cc1ccc([N+](=O)[O-])c(C(=O)N/N=C/c2cccs2)c1	22.9	nt	2.2%	-0.7	-4.9	-4.8
COc1ccc(Cn2c(=O)cc(C)[nH]c2=S)cc1	-5.0	9.3	-1.6%	0.3	-0.3	12.9
COC(=O)c1c(NC(=O)C2c3ccccc3Oc3ccccc32)sc2c1CCC(C)C2 (stereo not given)	-20.8	nt	1.4%	0.0	nt	nt
CC(C)CN(C(=O)c1ccc([N+](=O)[O-])s1)c1c(N)n(Cc2ccccc2)c(=O)[nH]c1=O	7.8	1.6	0.3%	-0.2	11.6	0.0
Cc1occc1C(=O)N1CCN(c2ccccc2)CC1	-6.4	-4.9	1.5%	-0.6	-2.8	4.3
Cc1ccc(NC(=O)C(=O)NCC(c2cccnc2)N2CCN(C)CC2)cc1 (stereo not given)	-10.0	nt	0.1%	0.6	nt	nt
O=S1(=O)N=C(N2CCc3ccccc3C2)c2ccccc21	34.9	-2.6	0.0%	-0.7	-3.6	-2.2
Cc1ccc(NC(=O)c2oc3ccc4c(c3c2C)C(=O)CC(C)(C)O4)c(C)c1	30.2	nt	2.0%	0.0	nt	nt
O=C(CNC(=O)c1ccc2c(=O)n3c(nc2c1)CCC3)Nc1ccc(F)c(F)c1	-0.1	0.0	4.9%	0.3	-4.9	17.5
Cc1nc(-c2ccccn2)sc1C(=O)Nc1ccc(Cl)c(Cl)c1	-7.9	-15.3	7.8%	-0.3	-0.6	3.5
O=C(Nc1c(C(=O)N2CCCC2)cnn1-c1ccccc1)c1cccc(F)c1	-4.9	7.1	-0.8%[38.3 µM]	-0.5	-0.9	5.2
CC1CCN(C2=NC(=O)/C(=C/c3ccc(O)cc3)S2)CC1	10.3	14.4	-0.5%	-0.4	1.6	-1.9

Grouped by structure, the compounds so far containing a Cl atom.
SMILES	TRPML1 inh	CtBP-E1A blk	PINK1 expr mod	TRPML1 agonist	D2 agonist	Six1-Eya2 inh
Cc1noc(C)c1CSCC(=O)N(C)CC(=O)Nc1ccc(Cl)cc1	13.2	3.0	2.4%	0.0	2.9	8.0
COc1ccc(NC(=O)CSc2nnc(CNC(=O)COc3ccc(Cl)cc3)o2)cc1	-1.6	nt	1.9%	1.4	-1.6	-4.4
CCCCN(CCCC)CCCNC(=O)c1cc(-c2ccc(Cl)s2)nc2ccccc12	-11.5	nt	0.9%	1.0	nt	nt
CC(=NNC(=O)c1ccncc1)c1ccc(Cl)c(Cl)c1	-8.3	-5.1	2.4%	-0.5	-1.9	-3.8
O=[N+]([O-])/C=C/c1cn(Cc2ccc(Cl)cc2)c2ccccc12	17.5	-3.6	0.5%	1.6	-1.4	1.5
Cc1c(C(=O)Nc2cccc(Cl)c2)cn2c(nc3ccccc32)c1C#N	-7.5	-0.8	0.2%	-0.2	-2.5	9.4
CC(OC(=O)Cc1cccc(C(F)(F)F)c1)C(=O)Nc1ccc(Cl)cn1 (stereo not given)	5.5	11.2	0.8%	1.6	-2.5	14.5
CCn1ncc(Cl)c1C(=O)NC(=S)Nc1c(C)cc(C)cc1[N+](=O)[O-]	20.8	-1.2	2.8%	4.2	-3.3	-20.8
Cc1nc(-c2ccccn2)sc1C(=O)Nc1ccc(Cl)c(Cl)c1	-7.9	-15.3	7.8%	-0.3	-0.6	3.5
